PK Bst: pyruvate kinase (B. stearothermophilus) modulation. partly purified Bacillus stearothermophilus pyruvate kinase, luminescence ATP production; ribose 5-phosphate activator present at AC10. actives 1.2% (n = 51,000). AID 361. Potency, µM; in the data active means potency below about 11 µM; inconclusive means mostly about 12 µM to 25 µM; inactive means weaker than that;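 the screen sought inhibitors and activators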;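 also: potency is read from the fitted curve at half-maximal effect; scaled between full activation by ribose 5 phosphate and full inhibition by luteolin; about four in five hits inhibit and the cells do not say which; series up to 57 µM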
YjeE inh: inhibitors of E. coli YjeE (TsaE) | P0AF67 | purified YjeE, fluorescence polarisation of a bound ADP probe | Potency, µM | actives 0.05% (n = 71,000) | AID 605; active = well fitted falling curve; inconclusive = weaker or top-dose-only fall, or a rising curve; inactive = flat or poorly fitted curve;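 also: top concentration of the series not given in the record; excess ADP was the control for the full effect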
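Fluorescence polarization of a BODIPY Texas Red–ADP probe (2 uM) bound to purified YjeE (10 uM) was read after 15 min room-temperature incubation with compounds. Loss of polarization marks inhibitors; ADP serves as titrated control.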
An asterisk follows results filed as active; i = inactive; ? = inconclusive; nt = no result given. Some of the compounds tested; count on the stated rates, not on these rows.

SMILES | PK Bst | YjeE inh
Cc1cccc(CS(=O)(=O)Cc2ccc(C(=O)N3CCC4(CC3)OCCO4)o2)c1 | >57 | i
OCCOCCO | nt | i
Cn1c(O)c(C=NCc2ccco2)c(=O)n(C)c1=O | nt | i
C=CCn1c(O)c(C=NCCN(C)C)c(=O)[nH]c1=O | >11 | nt
CCC(=NCCCN(C)C)c1c(O)n(-c2ccc(OC)cc2)c(=O)[nH]c1=O | >57 | i
CCC(=NCc1ccco1)c1c(O)n(C2CCCCC2)c(=O)[nH]c1=O | nt | i
CCOC(=O)C1OC1(C)c1ccccc1 (centres undefined) | nt | i
c1ccc([C@H]2CNCc3ccccc32)cc1 | nt | i
Cc1ccc(C2C(S(C)(=O)=O)=C(O)C(=O)N2c2ccccc2)cc1 (centres undefined) (tested in a mixture with another compound) | >57 | i
Nc1ccc(Cl)cc1N | nt | i
O=P(OCC(F)(F)C(F)F)(N1CCOCC1)N1CCOCC1 | >57 | i
O=c1[nH]c(=O)n(C2CCCCC2)c(O)c1C1NCCc2ccccc21 (centres undefined) | >57 | i
CN(C)[C@@H]1C(=O)C(C(N)=O)=C(O)[C@@]2(O)C(=O)C3=C(O)c4c(O)cccc4[C@@](C)(O)[C@H]3[C@H](O)[C@@H]12 | >26 | i
Clc1ccccc1 | nt | i
COc1ccc(OC)c(C(O)C(C)N)c1 (centres undefined) | >26 | nt
O=C(Cl)OCc1ccccc1 | nt | i
O=C(CNS(=O)(=O)c1ccc(Br)s1)N1CCC2(CC1)OCCO2 | >57 | i
CCCCSP1(=S)NCCCO1 (centres undefined) | >26 | nt
C=C(CC1(C(C)NP(=O)(c2ccccc2)c2ccccc2)CC1)c1ccccc1 (centres undefined) | nt | i
CC(C)C(=O)N1CCN(CCN=Cc2c(O)n(C)c(=O)n(C)c2=O)CC1 | >26 | nt
CC(=O)C1(c2ccccc2)CCNCC1 | >26 | nt
CC(c1ccccc1)n1cncc1C(=O)N1CCCC1=O (centres undefined) | >57 | i
c1ccc2c(NC3=NCCS3)cccc2c1 | >57 | i
Cc1c(N=Cc2c(O)n(Cc3ccco3)c(=O)[nH]c2=O)c(=O)n(-c2ccccc2)n1C | >26 | nt
Cc1ccc(C2CC(=O)C(C=NCCN3CCN(C(=O)Cc4ccccc4)CC3)=C(O)C2)cc1 (centres undefined) | >57 | i

An excerpt of these results, as tab-separated lines.
SMILES	PK Bst	YjeE inh
Cc1cccc(CS(=O)(=O)Cc2ccc(C(=O)N3CCC4(CC3)OCCO4)o2)c1	>57	i
OCCOCCO	nt	i
Cn1c(O)c(C=NCc2ccco2)c(=O)n(C)c1=O	nt	i
C=CCn1c(O)c(C=NCCN(C)C)c(=O)[nH]c1=O	>11	nt
CCC(=NCCCN(C)C)c1c(O)n(-c2ccc(OC)cc2)c(=O)[nH]c1=O	>57	i
CCC(=NCc1ccco1)c1c(O)n(C2CCCCC2)c(=O)[nH]c1=O	nt	i
CCOC(=O)C1OC1(C)c1ccccc1 (centres undefined)	nt	i

(listing goes on)
SMILES | PK Bst | YjeE inh
Cc1ccc(OCC(=O)N2CCN(CC3CC4C=CC3C4)CC2)cc1 (centres undefined) | >57 | i
CC(C)c1cccc(C(C)C)c1OCCn1ccnc1 | >57 | i
C=CCN1C(=O)C2(C(C(=O)OCC)=C(N)Oc3ccccc32)c2c1c1ccccc1oc2=O (centres undefined) | >57 | i
Oc1c(Br)cc(Br)cc1Br | nt | i
C[N+]1(C)[C@@H]2CC(OC(=O)[C@H](CO)c3ccccc3)C[C@H]1[C@@H]1O[C@@H]12 (some centres undefined) | >26 | nt
O=c1cccc2n1CC1CC2CN(Cc2ccc3c(c2)OCO3)C1 (centres undefined) | nt | i
CCC12CN3CCN(CC(C3)/C1=N\O)C2 | nt | i
O=[N+]([O-])c1ccc(Cl)c(Cl)c1Cl | nt | i
CC(C)n1cc2c3c(cccc31)[C@@H]1C[C@H](C(=O)O[C@@H](C)[C@H](C)O)CN(C)[C@H]1C2 | nt | i
CC(=NCc1ccco1)c1c(O)n(Cc2ccccc2)c(=O)[nH]c1=O | >57 | i
O=C(O)CN1C(=O)CN=C(c2ccccn2)c2cc(Cl)ccc21 | nt | i
O=P(C(c1c[nH]c2ccccc12)N1CCOCC1)(N1CCOCC1)N1CCOCC1 (centres undefined) | >57 | i
OCC(Cl)CCl (centres undefined) | nt | i
CCC(=O)N1c2ccc(S(=O)(=O)CCC(=O)N3CCC4(CC3)OCCO4)cc2CC1C (centres undefined) | >57 | i
Cc1ccc(-n2nc(C)c3c2NC(=O)CSC3c2ccc3c(c2)OCO3)cc1 (centres undefined) | >57 | i
CN(C)c1ccc(NC(=O)CN2C(=O)CN=C(c3ccccc3)c3ccccc32)cc1 | >57 | i
O=C(O)[C@@H](O)[C@@H](O)[C@@H]1[O][Sb][O][C@@H]1CO | nt | i
NC[C@@H](CC(=O)O)c1ccc(Cl)cc1 | nt | i
COc1ccc(OC)c([C@H](O)[C@H](C)N)c1 | nt | i
CC(=NCCN1CCOCC1)c1c(O)n(C2CCCCC2)c(=O)[nH]c1=O | >57 | i
CCn1c(=O)cc(SCC(=O)N2CCC3(CC2)OCCO3)c2ccccc21 | >11 | i
c1csc(CN2CCC3(CCNCC3)CC2)n1 | nt | i
CC[C@@H](CO)NC(=O)[C@H]1C=C2c3cccc4[nH]cc(c34)C[C@H]2N(C)C1 | nt | i
Cn1c2ccccc2c2c(C(=O)N3CCC4(CC3)OCCO4)cn(C3CCCCC3)c(=O)c21 | >57 | i
O=C(c1ccc(Cl)cc1)C12CN3CN(CN(C3)C1)C2 | >57 | i

Molecules shown so far with two or more sulfur atoms, in the order listed:
SMILES | PK Bst | YjeE inh
O=C(CNS(=O)(=O)c1ccc(Br)s1)N1CCC2(CC1)OCCO2 | >57 | i
CCCCSP1(=S)NCCCO1 (centres undefined) | >26 | nt

Next structures follow:
SMILES | PK Bst | YjeE inh
CCOC(=O)c1cncn1[C@@H](C)c1ccccc1 | nt | i
COP(=O)(OC)OC=C(Cl)Cl | nt | i
O=C(O)COc1ccccc1 | nt | i
CC(=NCCCN1CCOCC1)c1c(O)n(-c2ccccc2C)c(=O)[nH]c1=O | nt | i
CC1=NN(c2ccc(S(=O)(=O)O)cc2C)C(=[OH+])[C@H]1N=Nc1cc(S(=O)(=O)O)ccc1C(=O)O.O.[Cr] | nt | i
COc1ccc(Cn2c(O)c(C=NCCCn3ccnc3)c(=O)[nH]c2=O)cc1 | >26 | nt
CC(=NCCCn1ccnc1)c1c(O)n(C)c(=O)n(C)c1=O | >57 | i
Brc1cccc(-c2ccccc2)c1 | nt | i
COc1ccc(CCNCc2ccccn2)cc1OC | >57 | i
CCCCN1C(=O)NC(=O)C2(Cc3cc(C)ccc3N(C)C2)C1=O (centres undefined) | >57 | i
OCCN1C2CCC1CC(O)(c1ccc(F)cc1)C2 (centres undefined) | >57 | i
CCCN1CCc2cc(O)cc3c2[C@H]1Cc1ccc(O)c(O)c1-3 | nt | i
Nc1ccccc1C(=O)OCCOc1ccccc1 | ? | i
O=C(Oc1ccccc1)N1CCC[C@@]2(CCN(Cc3nccs3)C2)C1 | nt | i
c1ccc2c([C@@H]3CCN(CCN4CCOCC4)C3)c[nH]c2c1 | nt | i
O[C@@H]1CCCC[C@H]1N1CCC(c2ccccc2)CC1 | nt | i
CCN1CCC2(CCNC2)C1 (centres undefined) | >57 | i
C[C@@H]1O[C@H](OC2[C@@H](O)[C@H](O)C(O)[C@H](O)[C@H]2O)[C@@H](N)C[C@@H]1N=C(N)C(=O)O (some centres undefined) | nt | i
COC(=NC1CCCC1)C(O)c1c[nH]c2ccccc12 (centres undefined) | >57 | i
O=C1NC(=O)N(C2CCCCC2)C(=O)C1C1c2ccccc2C(=O)N1Cc1ccccc1 (centres undefined) | nt | i
Cc1cccc(C2=NCC(=O)N(CC(=O)NCc3ccco3)c3sc4c(c32)CCCC4)c1 | >57 | i
CCOC(=O)c1c(C)n(COCCO)c2ccc(O)cc12 | >57 | i
O=C(c1cc2c(s1)CCCC2)N1CCC2(CC1)OCCO2 | >57 | i
COc1ccc(C=O)cc1 | nt | i
O=C(Cc1ccccc1)N1CCN(Cc2c[nH]c3ccccc23)CC1 | >57 | i
SMILES | PK Bst | YjeE inh
CC(C)n1nnnc1CN1CCN(C)CC1 | >57 | i
C=CCn1c(O)c(C(C)=NCc2cc(OC)cc(OC)c2)c(=O)[nH]c1=O | >57 | i
COC(=O)c1ccc(CN2CCN(Cc3ccccc3)CC2)cc1 | nt | i
CN1CC[C@@]2(CCCN(C(=O)Oc3ccccc3)C2)C1 | nt | i
Cc1nc2ccccc2cc1C[N+]12CN3CN(CN(C3)C1)C2 | nt | i
C/C=C1\C[C@H](C)[C@@](O)(CO)C(=O)OCC2=CCN3CC[C@@H](OC1=O)[C@@H]23 | nt | i
Cc1c(C(=O)N2CCC3(CC2)OCCO3)oc2ccccc12 | nt | i
O=C1C2CCCN2C(c2cccs2)N1c1ccccn1 (centres undefined) | >57 | i
Cn1c(O)c(C=Nc2ccc3c(c2)CCC3)c(=O)n(C)c1=O | nt | i
N[C@H](CCP(=O)(O)O)C(=O)O | nt | i
C#C[C@]1(O)CC[C@H]2[C@@H]3CCC4=CC(=O)CC[C@]4(C)[C@H]3CC[C@@]21C | >26 | nt
Cc1cc(OCC(=O)Nc2cc(C)nn2-c2ccccn2)c2c3c(c(=O)oc2c1)CCC3 | >57 | i
CO[C@H]1C=C2CCN(C)[C@@H]2[C@@H]2c3cc4c(cc3C(=O)O[C@H]21)OCO4 | nt | i
O=C(CCS(=O)(=O)c1ccc(Br)cc1)N1CCC2(CC1)OCCO2 | >57 | i
O=C(Cc1ccccc1)OCc1ccccc1 | nt | i
CC(C)CC(NC(=O)C1CCCCC1)C(=O)N1CCC2(CC1)OCCO2 (centres undefined) | >57 | i
Cc1cccc([N+](=O)[O-])c1 | nt | i
CCCCCC[C@H]1C(=O)O[C@H](C)[C@H](NC(=O)c2cccc(NC=O)c2O)C(=O)O[C@@H](C)[C@H]1OC(=O)CC(C)C | nt | i
COc1ccn(C)c(=O)c1C#N | nt | i
Clc1ccc(C(Cl)(Cl)Cl)c(Cl)c1 | nt | i
C=CCN1C[C@H](C)N([C@@H](c2ccccc2)c2ccc(C(=O)N(CC)CC)cc2)C[C@H]1C | nt | i
CC(=O)CCC(C)=O | nt | i
Cc1cccc(C)c1NC1=NCCCS1 | >57 | i
CCCC(C)C1C(C#N)=C(N)Oc2c1c(=O)oc1ccccc21 (centres undefined) | nt | i
C[C@]12Cc3cn4c(nc3C=C1CC[C@H]1[C@@H]2CC[C@@]2(C)[C@H]1CC[C@@]2(O)C#N)nc1ccccc14 | nt | i
SMILES | PK Bst | YjeE inh
Cc1ccccc1-n1c(O)c(C=Nc2ccc3c(c2)OCO3)c(=O)[nH]c1=O | nt | i
CCC(=NCc1ccco1)c1c(O)n(-c2ccccc2)c(=O)[nH]c1=O | >57 | i
CC(C)N1CCC2(CC1)NC(CO)(CO)CO2 | nt | i
CN(C)CCN=Cc1c(O)n(C2CCCCCC2)c(=O)[nH]c1=O | i | i
COC1=CC(=O)OC(/C=C/c2ccccc2)C1 (centres undefined) | >26 | nt
OCC1CO1 (centres undefined) | nt | i
O=P(/C(=N/O)N1CCOCC1)(N1CCOCC1)N1CCOCC1 | >57 | i
COc1ccc(P2(=O)Nc3ccccc3N2)cc1 | nt | i
COc1cc2c(c(OC)c1OC)-c1ccc(O)c(=O)cc1[C@H](N)CC2 | nt | i
Cc1ccc([N+](=O)[O-])cc1C | nt | i
CCN(c1ccc(C(O)(C(=O)OC)C(F)(F)F)cc1)S(=O)(=O)c1ccccc1 (centres undefined) | nt | i
Nc1ccc(-c2ccc(N)c(Cl)c2)cc1Cl | nt | i
O=C(O)c1cccc(Cl)c1 | nt | i
COc1ccc(C(CC(=O)N2CCC3(CC2)OCCO3)NS(=O)(=O)c2ccc(C)cc2)cc1 (centres undefined) | >57 | i
O=C(Cc1ccccc1)N1CCN(C2CCCC2)CC1 | >57 | i
O=C(CN1CCN(Cc2ccc(Cl)cc2)C1=O)N1CCC2(CC1)OCCO2 | >57 | i
Cc1cccc(-n2c(O)c(C=NCCCN3CCOCC3)c(=O)[nH]c2=O)c1C | >57 | i
OC1(c2ccccc2F)CC2CCC(C1)N2CCN1CCOCC1 (centres undefined) | >57 | i
CCN(CC)C(=O)N[C@H]1C=C2c3cccc4[nH]cc(c34)C[C@@H]2N(C)C1 | nt | i
CN(C)C1(c2nnnn2CCOC(=O)Nc2ccc(Cl)cc2)CCCCC1 | >57 | i
CC(=NCC1CCCO1)c1c(O)n(-c2ccc(Cl)cc2)c(=O)[nH]c1=O (centres undefined) | nt | i
Nc1ccc([N+](=O)[O-])cc1[N+](=O)[O-] | nt | i
Clc1nc(Cl)nc(Nc2ccccc2Cl)n1 | nt | i
Cc1cc(N=Nc2ccccc2C)ccc1N | nt | i
CCCSP1(=S)NCCCO1 (centres undefined) | >26 | nt
SMILES | PK Bst | YjeE inh
O=c1oc2ccccc2c(O)c1Cc1c(O)c2ccccc2oc1=O | nt | i
Cn1c(C(=O)O)c(CC(=O)N2CCN(Cc3ccccc3)CC2)c2ccccc21 | >57 | i
N[C@@H](Cc1c[nH]c2cc([N+](=O)[O-])ccc12)C(=O)O | nt | i
c1cnc(N2CCCC3(CCNCC3)C2)nc1 | nt | i
CC(C)[C@@H](Br)C(=O)NCC(=O)O | nt | i
Oc1cc2c(cc1O)[C@H]1c3ccccc3CN[C@H]1CC2 | nt | i
O=C(Cc1ccc(Br)cc1)N1CCN(Cc2ccccc2)CC1 | nt | i
COc1ccc(CNCC(=O)N2CCC3(CC2)OCCO3)cc1 | >57 | i
COc1cc(OC)cc(-n2nc(C(=O)N3CCC4(CC3)OCCO4)c3ccccc3c2=O)c1 | >57 | i
CCCCc1nc2ccccc2c(=O)n1-c1ccc(O)cc1 | >57 | i

Screening data as filed in PubChem.
